Screening results deposited in PubChem BioAssay by several laboratories.
YopH PTP inh – YopH tyrosine phosphatase inhibitors, primary screen, biochemical, fluorescence Ex485/Em525 | YopH tyrosine phosphatase [Yersinia enterocolitica] | inhibition, %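 (about 10 µM by stock and volumes)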 | 140,000 compounds, 0.16% hits;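 active = inhibition of 50% or more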;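 also: controls were vehicle for no effect and minimum signal wells for full effect; inactives centre near -20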
Mtb growth – M. tuberculosis H37Rv growth inhibitors, H37Rv strain (AID 1626); M. tuberculosis H37Rv growth inhibition; higher % means a stronger effect; inhibition, % at 10 µM; hits with a dose series show IC50 in µM; 220,000 compounds, 0.95% hits;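 active = confirmed in a dose series; inconclusive = inhibition above 80% but not taken into the dose series; inactive = below 80% or under 30% at every dose of the series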;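 also: bacteria incubated seven days before Alamar blue readout; 0% = bacteria only wells and 100% = bacteria with antibiotic wells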
Mtb bLac sens – beta-lactam sensitization of Mtb H37Rv, H37Rv. M. tuberculosis H37Rv growth with meropenem, percent inhibition; hits of this screen are not shown here. inhibition, % at 25 µM. 330,000 compounds, 0.27% hits. AID 434955, 2010;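 active = about 74% or more and at least 40 points above the plate without the antibiotic, then above 30% in a dose series; inconclusive = first-round hits that could not be retested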;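 also: growth measured after seven days incubation then overnight dye step; 0% = bacteria only wells and 100% = bacteria with antibiotic; twin plates without the antibiotic show which effects depend on it; some results filed as inactive read as strong as hits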
Arbovirus anti – antivirals against arbovirus infection, primary screen, cell-based, full library, 10K replicate subset | arbovirus infection cell-based antiviral screen | inhibition, % at 10 µM | 200,000 compounds, 0.37% hits;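 active = inhibition from about 30%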;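 also: bluetongue infection of BSR cells; cell survival read as ATP light after 72 h; 0% = infected wells without compound and 100% = uninfected wells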
RecA splice inh – Mtb RecA intein splicing inhibitors, primary screen, biochemical, fluorescence, HTS; 290,000 compounds, 0.75% hits; cell-free RecA intein splicing; inhibition, %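 (about 9 µM by stock and volumes)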; Protein RecA (Mycobacterium tuberculosis (strain ATCC 25618 / H37Rv)), P9WHJ3; in the data active = inhibition above about 30%; inconclusive = no clear call, values can overlap the other calls;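 also: 0% = vehicle wells and 100% = reference inhibitor control wells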
Target sequence (P9WHJ3 whole entry, looked up, canonical isoform): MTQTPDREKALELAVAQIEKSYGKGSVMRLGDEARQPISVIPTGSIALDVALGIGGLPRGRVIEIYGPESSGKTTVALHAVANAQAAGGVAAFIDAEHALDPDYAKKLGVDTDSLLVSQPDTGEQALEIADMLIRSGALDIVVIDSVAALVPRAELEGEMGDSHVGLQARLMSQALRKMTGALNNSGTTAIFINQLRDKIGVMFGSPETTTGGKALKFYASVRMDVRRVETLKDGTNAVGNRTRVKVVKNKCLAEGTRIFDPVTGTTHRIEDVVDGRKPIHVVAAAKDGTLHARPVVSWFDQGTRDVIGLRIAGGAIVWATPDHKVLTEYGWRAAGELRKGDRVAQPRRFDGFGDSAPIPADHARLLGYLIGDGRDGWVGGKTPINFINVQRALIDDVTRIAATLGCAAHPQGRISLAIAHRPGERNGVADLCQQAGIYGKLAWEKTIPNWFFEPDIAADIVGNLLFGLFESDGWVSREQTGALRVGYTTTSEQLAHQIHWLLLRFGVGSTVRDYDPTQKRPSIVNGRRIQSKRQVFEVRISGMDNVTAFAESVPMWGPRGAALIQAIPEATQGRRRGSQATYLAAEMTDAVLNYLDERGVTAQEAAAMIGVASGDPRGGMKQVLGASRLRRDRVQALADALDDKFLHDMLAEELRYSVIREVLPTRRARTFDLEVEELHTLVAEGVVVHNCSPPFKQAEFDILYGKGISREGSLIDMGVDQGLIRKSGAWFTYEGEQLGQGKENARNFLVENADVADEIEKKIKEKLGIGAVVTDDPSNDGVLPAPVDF
Arbovirus anti repeat – second read-out of Arbovirus anti, no call of its own (marks repeat the call); inhibition, %; measured here: 10K subset replicate screen; many hits read low in the repeat;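 first of two repeat runs on a subset; 0% = infected and 100% = uninfected wells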
* = called active by the depositor; ? = inconclusive; · = no result given.

SMILES	YopH PTP inh	Mtb growth	Mtb bLac sens	Arbovirus anti	RecA splice inh	others
CCOc1ccc(-c2cc(N)n(S(=O)(=O)c3cccc4nsnc34)n2)cc1	·	5%	-2	·	-2.9
CCOC(=O)NC(=O)CSc1nnc(SCCC(=O)O)s1	-28	-5%	-7	-5	0.4
CCOC(=O)c1c(NC(=O)CSc2nnc(-c3c[nH]c4ccccc34)n2CCOC)sc2c1CCCC2	-12	·	1	5	32*
O=S(=O)(c1ccccc1)c1nc(-c2ccco2)oc1N1CCCCCC1	-21	-3%	-6	3	·
CN1CCc2c(sc(NC(=O)C3CCCN3S(=O)(=O)c3ccc(Cl)s3)c2C(N)=O)C1 (configuration not stated)	·	·	4	·	-17
O=C(c1c[nH]c2ccc(S(=O)(=O)N3CCOCC3)cc2c1=O)N1CCC2(CC1)OCCO2	·	24%	5	21	2.2
Cc1nc(C)c(CC(=O)N2CCc3c([nH]c4ccccc34)C2c2ccccn2)s1 (configuration not stated)	·	3%	0	-1	-1.1
Nc1nc(Cl)cc(NCCc2ccc(O)cc2)n1	·	1%	0	-12	-0.5
CN(C(=O)COC(=O)C1c2ccccc2Oc2ccccc21)C1CCS(=O)(=O)C1 (configuration not stated)	-28	2%	-10	-6	3.2
CCC1=NN=C(c2ccc(F)cc2)C(c2c[nH]c3ccccc23)N1O (configuration not stated)	-26	-10%	1	-3	2.2
CC1=Nc2ccccc2N=C(NC(=O)CN2CCN(c3ccccc3)CC2)C1c1ccccc1 (configuration not stated)	·	3%	3	-6	3.0
Cc1ccc(NC(=O)CN2C(=O)c3ccccc3S2(=O)=O)cc1C	·	·	-10	·	-0.2
O=C1NCCc2cc3c(cc21)OCO3	-25	-5%	-1	0	3.2
CC(C)c1ccc2[nH]c(O)c(N=NC(=S)NCCc3ccccc3)c2c1	-41	79%	9	-19	21
O=C(CCC(=O)Nc1ccc(Cl)cc1Cl)NNC(=O)Nc1ccccc1	·	6%	3	-4	-0.6
Cc1ccc(-c2[nH]c3cc(C(=O)NCCCn4ccnc4)ccc3c(=O)c2O)cc1	·	-1%	-3	·	-262
CC1CN=C(Nc2cccc(S(=O)(=O)N(C)C)c2)S1 (configuration not stated)	·	2%	0	0	-2.9
COc1ccc(Nc2ccnc3ccccc23)cc1	-39	9%	-2	5	2.2
CCc1nc(SCC(=O)c2c[nH]c3ccccc23)n[nH]1	·	0%	0	9	0.8
O=C(O)c1cccc(Oc2ccccc2[N+](=O)[O-])c1	-21	8%	7	-4	-1.2
Cc1ccc2nsnc2c1NS(=O)(=O)c1c(C)ccc2nsnc12	-15	-3%	-2	-6	36*
CCOC(=O)c1cccc(NS(=O)(=O)c2cnc[nH]2)c1	-20	-11%	1	23	1.6
CCOC(=O)N1CCN(S(=O)(=O)c2ccc(C)c(C(=O)NC3CCCCC3)c2)CC1	·	·	-11	·	3.2
COc1ccccc1OCc1cc(C(=O)N(C)CCC2CCCCO2)no1 (configuration not stated)	·	·	-18	·	2.4
CN(C(=O)COC(=O)c1ccc(S(=O)(=O)N2CCOCC2)cc1)C1CCCCC1	·	-3%	0	-1	0.1

(list continues)
SMILES	YopH PTP inh	Mtb growth	Mtb bLac sens	Arbovirus anti	RecA splice inh	others
CNS(=O)(=O)c1cccc(C(=O)OCCCOC(=O)c2cccc(S(=O)(=O)NC)c2)c1	·	·	-5	·	1.1
CSc1cccc(NC(=O)/C=C/c2cccc(Cl)c2)c1	-12	?	97	-12	12
O=C(NCCCN1CCCC1=O)C(=O)NCC1OCCN1S(=O)(=O)c1ccc(Br)cc1 (configuration not stated)	·	·	-6	·	-1.5
CC(C)c1nnc(NC(=O)CCC(=O)N2CCN(c3cccc(Cl)c3)CC2)s1	·	·	14	·	2.2
Cc1cccc(NC(=O)CNC(=O)c2ccc3nc[nH]c3c2)c1C	·	·	-2	·	2.2
CN(C(=O)c1ccc2c(c1)OCCO2)c1c(N)n(Cc2ccccc2)c(=O)[nH]c1=O	·	·	-5	·	-2.3
CC(=O)N(C)c1ccc(NC(=O)N2CCOCC2)cc1	·	·	1	·	-1.8
CC1CCCCC1NC(=O)CCn1c(=O)oc2ccccc21 (configuration not stated)	-8	5%	2	0	0.3
Cc1cccc(OCC(=O)Nc2ccccc2N2CCCCC2)c1C	·	·	81	·	26
CC(Sc1ccc2c(c1)OCCO2)C(=O)Nc1ccc2c(c1)OCO2 (configuration not stated)	-36	-8%	-16	-4	6.1
COc1cc(C(=S)N2CCOCC2)cc(OC)c1O	·	-2%	1	·	-5.3
COc1ccc(NC(=O)C2CCCN(c3nn4c(=O)cc(C)nc4s3)C2)cc1 (configuration not stated)	·	·	-5	·	0.1
COc1ccc(CN2CCCC(CO)(Cc3ccc(F)cc3F)C2)cc1 (configuration not stated)	·	·	2	·	-0.5
Cc1ccc(S(=O)(=O)N2CCN(C)CC2)cc1	·	·	-2	·	-0.5
COc1ccccc1C(=O)Oc1ccc(C(C)(C)C)cc1	-2	-6%	95	6	2.1
CC1=CCC2C(=O)N(c3cccc(C(=O)Nc4ccccc4Cl)c3)C(=O)C2C1 (configuration not stated)	·	·	2	·	-4.4
COc1ccccc1NC(=S)N1C2CCC1CC(NC(=O)NC13CC4CC(CC(C4)C1)C3)C2 (configuration not stated)	-33	15%	9	-9	2.0
S=c1[nH]nc(Cc2c[nH]c3ccccc23)o1	-22	-6%	-2	-1	0.2
CC(=O)c1c(C)[nH]c(C(=O)Nc2cc(C)cc(C)c2)c1C	-15	-2%	-1	-3	1.1
Cc1cc(-c2ccc(C(C)C)c(S(=O)(=O)NCc3ccco3)c2)on1	·	·	1	·	4.0
Cc1nc(S/C(=C\c2ccc(-c3ccc(C(=O)O)c(Cl)c3)o2)C(=O)O)n[nH]1	·	-7%	·	·	-6.0
Cc1cc(C)cc(N(CC(=O)NCCSc2ccccn2)S(=O)(=O)c2ccccc2)c1	-47	-3%	-5	-5	10
CCn1nnnc1NC(=O)c1cc(OC)c(OC)c(OC)c1	·	8%	1	-2	1.9
Cc1nc2ccsc2c(=O)n1-c1ccccc1Cl	·	·	-4	·	-1.5
COc1ccc(NC(=S)N2CCN(C)CC2)cc1	·	·	-2	·	-0.8

Entries from the list above that have an aryl methoxy group (9):
SMILES	YopH PTP inh	Mtb growth	Mtb bLac sens	Arbovirus anti	RecA splice inh	others
COc1ccc(Nc2ccnc3ccccc23)cc1	-39	9%	-2	5	2.2
COc1ccccc1OCc1cc(C(=O)N(C)CCC2CCCCO2)no1 (configuration not stated)	·	·	-18	·	2.4
COc1cc(C(=S)N2CCOCC2)cc(OC)c1O	·	-2%	1	·	-5.3
COc1ccc(NC(=O)C2CCCN(c3nn4c(=O)cc(C)nc4s3)C2)cc1 (configuration not stated)	·	·	-5	·	0.1
COc1ccc(CN2CCCC(CO)(Cc3ccc(F)cc3F)C2)cc1 (configuration not stated)	·	·	2	·	-0.5
COc1ccccc1C(=O)Oc1ccc(C(C)(C)C)cc1	-2	-6%	95	6	2.1
COc1ccccc1NC(=S)N1C2CCC1CC(NC(=O)NC13CC4CC(CC(C4)C1)C3)C2 (configuration not stated)	-33	15%	9	-9	2.0
CCn1nnnc1NC(=O)c1cc(OC)c(OC)c(OC)c1	·	8%	1	-2	1.9
COc1ccc(NC(=S)N2CCN(C)CC2)cc1	·	·	-2	·	-0.8

(further entries)
SMILES	YopH PTP inh	Mtb growth	Mtb bLac sens	Arbovirus anti	RecA splice inh	others
Cc1ccc(-n2ncc(C#N)c2/N=C/N2CCN(C)CC2)cc1	4	-2%	2	8	-0.2
Cc1ccccc1C(=O)NC(=S)Nc1ccccc1N1CCCC1	·	7%	-6	3	8.0
COc1ccc(CCN(C(=O)Cn2nnc3ccccc32)C(C(=O)NCC2CCCO2)c2ccncc2)cc1OC (configuration not stated)	·	-4%	-5	-3	-4.5
CCC(=O)N1CCc2cc(S(=O)(=O)NCCC(=O)NC3CCCc4ccccc43)ccc21 (configuration not stated)	-19	2%	-5	3	0.8
NC(=O)C1CC(=O)N(c2ccc(OCc3ccc(Cl)cc3Cl)cc2)C1 (configuration not stated)	·	-3%	3	9	-0.7
COc1cc(OC)cc(C(=O)Nc2cccnc2)c1	·	4%	-3	3	0.2
Cc1ccc(C)c(S(=O)(=O)Nc2ccc(O)cc2)c1	-22	-11%	-1	-14	-4.9	Arbovirus anti repeat=-5
COc1ccccc1NC(=O)C1CCN(c2ncccn2)CC1	-23	-3%	-6	-4	-0.9
CCCCOc1ccc(CON(C(C)=O)C(C)=O)cc1Cl	·	7%	15	·	8.3
CCOC(=O)N1CCN(Cc2nc(-c3ccc(OC)cc3)no2)CC1	1	-1%	-7	·	3.4
CC(C)N(C(=O)NC(=O)Nc1ccccn1)S(C)(=O)=O	-24	-2%	-3	1	0.0
COc1ccc(CNC(=O)N[C@@H](Cc2c[nH]c3ccccc23)C(=O)O)cc1	·	·	2	·	-0.2
COc1ccccc1Cn1c(=S)[nH]c2ccccc2c1=O	·	·	6	·	-1.4
CCOc1cc(S(=O)(=O)NCc2ccccc2)c(OCC)cc1-n1cnnn1	5	1%	-5	·	5.6
Cc1cc(C)c(OCC(=O)Nc2nc(-c3ccccn3)cs2)c(C)c1	·	?	92	-24	15
COc1ccc(CCn2c(O)c(/C=N/N3CCCCC3)c(=O)[nH]c2=O)cc1OC	15	-5%	7	0	-0.7
CCc1cc2cc(C)ccc2nc1SCC(=O)N1CC(=O)Nc2ccccc21	·	·	8	·	0.1
Cc1ccc(NC(=O)C2CCC(=O)N2)cc1C (configuration not stated)	11	-5%	-12	-1	1.0
O=[N+]([O-])c1ccc2c(c1Nc1ccccc1Cl)=NC1(CCCCC1)N=2	·	-5%	-1	·	0.9
CC(=O)N1CCN(C(=O)c2ccc(C(=O)c3ccccc3)cc2)CC1	·	·	2	·	2.6
Nc1cc(S(=O)(=O)Nc2ccc(Cl)cc2)ccc1N1CCOCC1	·	-4%	-12	·	-1.4
c1ccc(Cc2noc(CN3CCC(CN4CCOCC4)CC3)n2)cc1	·	3%	-4	-2	-0.2
CC(=O)NC(=S)Nc1ccc2oc(=O)ccc2c1	·	20%	-9	·	-0.5
CC(C)CC(NC(=O)c1ccc(Cl)cc1)C(=O)OCc1cc([N+](=O)[O-])cc2c1OCOC2 (configuration not stated)	-23	0%	-2	-3	-0.8
Cc1c(N=Cc2ccc[nH]2)c(=O)n(-c2ccccc2)n1C	-28	-4%	-4	1	-5.2

Going on with the list.
SMILES	YopH PTP inh	Mtb growth	Mtb bLac sens	Arbovirus anti	RecA splice inh	others
CC(C)C(=O)Nc1ccc(NC(=O)c2ccccn2)cn1	-16	3%	-2	2	2.8
COc1cccc(OC)c1-c1nn(-c2ncc(C(F)(F)F)cc2Cl)c(=O)o1	·	5%	1	·	-0.6
C=CCc1ccc(OCCn2cccc2C=O)c(OC)c1	-38	2%	1	-19	6.4
CC(C)N(N=Nc1ccc([N+](=O)[O-])cc1)C(C)C	-21	-9%	-4	19	1.4
O=[N+]([O-])c1ccc(CN2CCN(c3ccccc3Cl)CC2)o1	·	·	100	·	-2.1
Cc1ccc(N2CC(C(=O)Nc3nccs3)CC2=O)cc1Cl (configuration not stated)	-23	-5%	1	-8	-1.1
Cc1ccc(CN2CCCNC2=O)cc1	-23	-2%	-4	1	2.5
O=C(NC1CCSC1=O)c1ccc(Cl)cc1 (configuration not stated)	-10	-7%	2	-2	0.4
O=C1CCCC2(O)C1C(c1cccc(Br)c1)NC(=O)N2Cc1ccccc1 (configuration not stated)	-6	-3%	8	0	9.4
COc1ccccc1N1C(=O)C2C(C(=O)c3ccccc3)=NN(c3ccc(Br)cc3)C2C1=O (configuration not stated)	·	1%	-1	·	-88
COc1cc2c(cc1OC)C1(C)N(CC2)C(C(C)=O)=NN1c1ccc(Cl)cc1 (configuration not stated)	·	66%	99	·	-14
COc1cccc(NC(=O)C2C3C=CC4(O3)C2C(=O)N(CCCN2CCCC(C)C2)C4C(=O)NC2CCCCC2C)c1 (configuration not stated)	·	·	-4	·	-0.2
CCCCNC(=O)C1C2C=CC(C2)C1C(=O)O (configuration not stated)	-21	2%	0	-8	-1.1
CC(C)(C)c1csc(NC(=O)c2cccnc2Cl)n1	·	·	-5	·	-1.7
O=C(COC(=O)c1cc[n+]([O-])cc1)Nc1ccc([N+](=O)[O-])cc1	·	-1%	-2	3	-1.4
COc1ccccc1C(=O)COC(=O)CN1C(=O)c2ccccc2C1=O	·	·	1	·	1.8
COc1ccc(-n2c(=O)c3ccccc3n(CC(=O)NC3CCCCC3)c2=O)c(OC)c1	-10	-4%	-9	9	-1.0
COc1ccccc1CNC(=O)CN1CCC(NC(=O)c2ccccc2F)CC1	0	11%	-3	10	0.0

These rows are one share of the data; the hit share may differ from the screen's.
